SARS PLP yeast: qHTS of Yeast-based Assay for SARS-CoV PLP; S. cerevisiae expressing SARS-CoV PLpro, growth rescue; control for the full effect not named in the record; Potency, µM (highest dose often 32.9 µM), without a hit: top-dose activity, positive = growth rescue; 0.19% of 330,000 active; further: 0% is about no effect; nearly all actives have a fitted effect of over 55% in size; growth read by luminescence after 48 h
RE007 growth inh: qHTS Assay for Inhibitors of the HIV-1 protein Vpr. 0.21% of 360,000 active. S. pombe RE007 Vpr strain, BacTiter-Glo ATP luminescence, 24 h; control for the full effect not named in the record. Potency, µM (titrated, usually from 92.2 µM), for inactives: at the top dose activity change, negative = less growth. AID 651644, 2012; active = well fitted falling curve with a large enough effect; inconclusive = small, poorly fitted or top-dose-only effect; inactive = no such curve, though single readings can be large or run the other way;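 further: on the % scale 0 is the no-effect control and ±100 the full control effect; nearly all actives have a fitted effect of over 50% in size; the assay follows cell death caused by Vpr and the record does not say whether a fall means rescue or toxicity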
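Fission yeast RE007 carrying one integrated HIV-1 vpr copy, seeded at OD 0.01 in PMG+AL medium with 23 nL pinned compound. Grown 24 h at 30 degrees; viability read by BacTiter-Glo luminescence after 5 min.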
Cruzain inh Det: qHTS Assay for Promiscuous and Specific Inhibitors of Cruzain (with detergent); Cruzipain (Trypanosoma cruzi), P25779; purified cruzain, Z-FR-AMC fluorescence, 0.01% Triton; Potency, µM, without a hit: max response, negative = inhibition, hits mostly inhibitors; 0.43% of 200,000 active; active means well fitted curve in the direction sought with a large enough effect; inconclusive means small, poorly fitted or top-dose-only effect, or another doubt; inactive means no such curve, though single readings can be large; an effect the other way counts as inactive or inconclusive;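 further: plate controls were neutral wells for no effect and buffer without enzyme for full effect; nearly all actives have a fitted effect of over 40% in size; top concentration of the series not given in the record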
Target sequence (P25779 123-467 limits assumed): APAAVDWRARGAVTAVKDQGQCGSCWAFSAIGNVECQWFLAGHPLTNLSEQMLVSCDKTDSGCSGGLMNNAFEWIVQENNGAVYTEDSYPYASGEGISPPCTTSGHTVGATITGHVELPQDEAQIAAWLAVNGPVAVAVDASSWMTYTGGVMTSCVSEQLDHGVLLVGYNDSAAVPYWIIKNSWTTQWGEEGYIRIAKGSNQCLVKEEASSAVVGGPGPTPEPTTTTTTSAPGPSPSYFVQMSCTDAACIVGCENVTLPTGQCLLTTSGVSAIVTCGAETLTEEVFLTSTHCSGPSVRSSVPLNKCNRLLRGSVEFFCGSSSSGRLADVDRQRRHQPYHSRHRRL
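Z-FR-AMC hydrolysis (2 uM substrate) by cruzain (1.5 nM) monitored kinetically at ex 360/em 450 nm after 15 min room-temperature compound exposure; 0.01% Triton X-100, pH 5.5, 5 mM DTT.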
MARV entry inh: qHTS for inhibitors of binding or entry into cells for Marburg Virus. Potency, µM (titrated, usually from 37.8 µM), for inactives: top-dose activity change, negative = inhibition, actives largely listed as inhibitors. Marburg virus pseudotyped entry inhibition, cell reporter; control for the full effect not named in the record; about a third of the inactives were read at about 46 µM. 1.8% of 300,000 active; active = well fitted inhibition curve with a large enough effect; inconclusive = small, poorly fitted or top-dose-only effect, or effect the other way; inactive = flat fitted curve, though single readings scatter; tested in HEK293 cells; about a fifth of its hits are not listed in these tables; further: on the % scale 0 is the no-effect control and ±100 the full control effect; luciferase read-out
NS1 inh: qHTS Assay for Inhibitors of Influenza NS1 Protein Function; S. cerevisiae slowed by influenza A NS1, growth recovery by OD600; Potency, µM (highest dose often 46.1 µM), inactives show top-dose activity, positive = more growth; 0.4% of 270,000 active; AID 2326, 2010; further: actives are rising curves; nearly all actives have a fitted effect of over 50% in size
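OD600 was taken as the measure of yeast growth restored by compound in an NS1-expressing S. cerevisiae strain. Cells had been washed out of glucose medium and diluted 1:100 into galactose -URA medium, pH 6.0.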
StopGo reporter: High Throughput Screening for Foot and Mouth Disease Virus Antivirals | human cells with a luciferase reporter of 2A StopGo recoding; control for the full effect not named in the record | Potency, µM (series often up to 57.9 µM), for inactives: at the top dose signal change, negative = less light | 1.2% of 410,000 active; active = well fitted falling curve with a large enough effect; inconclusive = small, poorly fitted or top-dose-only effect; inactive = no such curve, though single readings can be large or run the other way; tested in HEK293T cells; further: on the % scale 0 is the no-effect control and ±100 the full control effect; nearly all actives have a fitted effect of over 45% in size; luciferase light after 4 h
Cruzain inh noDet: qHTS Assay for Promiscuous and Specific Inhibitors of Cruzain (without detergent) | Cruzipain (Trypanosoma cruzi), P25779 | purified cruzain, Z-FR-AMC fluorescence, no detergent | Potency, µM, without a hit: max response, negative = inhibition, hits mostly inhibitors | 2.3% of 200,000 active; active means well fitted curve in the direction sought with a large enough effect; inconclusive means small, poorly fitted or top-dose-only effect, or another doubt; inactive means no such curve, though single readings can be large; an effect the other way counts as inactive or inconclusive;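 further: plate controls were enzyme without inhibitor for no effect and buffer without enzyme for full effect; nearly all actives have a fitted effect of over 40% in size; top concentration of the series not given in the record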
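Purified cruzain at 1.5 nM, pre-incubated 15 min with compound at room temperature in 100 mM sodium acetate pH 5.5, 5 mM DTT, 0.00005% Triton X-100. Reaction started with 2 uM Z-FR-AMC; AMC fluorescence increase over 60 s gives rate.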
LASV entry inh: qHTS for Inhibitors of binding or entry into cells for Lassa Virus; Potency, µM (highest dose often 37.9 µM), inactives show at the top dose activity change, negative = inhibition, most hits filed as inhibitors; 1.2% of 300,000 active; Lassa virus pseudotype entry inhibition, cell reporter; control for the full effect not named in the record; active means well fitted inhibition curve with a large enough effect; inconclusive means small, poorly fitted or top-dose-only effect, or effect the other way; inactive means flat fitted curve, though single readings scatter; tested in HEK293 cells; further: on the % scale 0 is the no-effect control and ±100 the full control effect; nearly all actives have a fitted effect of over 50% in size; luciferase read-out
Active calls of the source: *; ? = inconclusive; . = not tested or not shown; & = joins results of further samples; [ ] = another dose, or the depositor's remark. Unless noted, the call rests on the fitted dose curve; in most records, active means well fitted rising curve with a large enough effect; inconclusive means small, poorly fitted or top-dose-only effect; inactive means no such curve, though single readings can be large or run the other way. Potency means the concentration at half of the fitted maximal effect. Outcome played no part in choosing rows, and some 4.6% of all compounds hit somewhere here.

structure | SARS PLP yeast | RE007 growth inh | Cruzain inh Det | MARV entry inh | NS1 inh | StopGo reporter | Cruzain inh noDet | LASV entry inh
O=C(NCC1CCN(Cc2ccccc2F)CC1)C1CCCN(c2ncnc3c2nc2n3CCCCC2)C1 (stereo not given) | 2% | 0% | . | . | 6% | -6% | . | .
CC(=O)n1ccnc1 | -5% | 3%[18.4 µM] | . | . | -4% | -18% | . | .
Cc1cc(C(=O)CSc2nnc(-c3cccnc3)n2-c2ccccc2F)c(C)n1CC1CCCO1 (stereo not given) | -3% | -10% | 3.8% | -15% | 12% | -28% | 20% | -19%
O=C(Cn1cc(S(=O)(=O)Cc2ccccc2)c2ccccc21)N1CCOCC1 | 4% | 2% | . | 19% | 2% | 1% | . | -10%
Cc1oc2cc3oc(=O)c(CCC(=O)N[C@H](C(=O)O)C(C)C)c(C)c3cc2c1C | 1% | -9% | . | 19% | 4% | 40%[activator] | . | 0%
COc1cc2c(cc1NS(=O)(=O)N1CCCCC1)oc1ccccc12 | -22% | 23% | -0.4% | ? | 17% | -4% | -14% | -10%
Cc1cc(C(=O)CSc2n[nH]c(N)n2)c(C)n1-c1ccc(F)cc1 | 25% | -3% | -3.4% | ? | 15% | 21% | 0% | -11%
CCn1c(CCc2nc3ccccc3[nH]2)n[nH]c1=S | 2% | -24% | . | 3%[46.1 µM] | . | -2% | . | .
CCOCC(=O)Nc1cc(-c2cn3cccnc3n2)ccc1C | 3% | 2% | ? | 3% | -8% | 7% | ? | 17%
O=C(O)Cc1csc(NC(=O)CSc2cccc(C(=O)O)n2)n1 | -3% | 6% | . | 5%[46.1 µM] | 10% | -4% | . | -10%[46.1 µM]
COc1ccc(S(=O)(=O)N2CCc3ccccc32)cc1C(=O)NCCc1ccccn1 | -4% | -1% | . | ? | 12% | 13% | . | -29%
CC(=O)Nc1ccc(NC2=C(Cl)C(=O)c3ccccc3C2=O)cc1 | 1% | 6% | . | ? | . | 28µM* | . | ?
CCOC(=O)c1cnn(-c2ccccc2)c1-n1cccc1C(=O)C(=O)Nc1ccc(F)cc1 | -19% | -2% | 8.8% | ? | 5% | 0% | 5% | -3%
COc1ccc(C(=O)NN2C(=O)C3CCC(C)(C2=O)C3(C)C)cc1 (stereo not given) | 5% | 7% | 4.7% | ? | ? | 23% | -11% | -38%[14.3 µM]
COCCSc1ccccc1C(=O)Nc1ccncc1 | -1% | -3% | 4.0% | 9% | 6% | . | -1% | 14%
Cc1cc2c(c(=O)n1CCc1ccccc1)C(C(C)C)C(C#N)=C(N)O2 (stereo not given) | -13% | -4% | 3.1% | -6% | 7% | -20% | 5% | -2%
Cc1cccc(-c2nnc3n2N=C(c2ccccc2)CS3)c1 | 1% | 14% | -2.6% | -21%&-21% | -15% | -14% | -23% | -24%
CCOC(=O)N1CCN(Cc2nc(N)nc(Nc3ccc(C)cc3)n2)CC1 | 5% | -11% | 2.1% | 6% | 0% | -8% | -9% | ?
CN(C)C(=O)CSc1nnc(-c2cnccn2)n1C | 0% | -2% | -0.4% | -2% | 0% | 7% | -9% | -1%
O=C(CCN1C(=O)c2ccc([N+](=O)[O-])cc2C1=O)Nc1ccccc1C(=O)O | 2% | -22% | . | 9% | -2% | 7% | . | -12%
Cc1ccc(C)c(S(=O)(=O)NCC(=O)N2CCCC2)c1 | -1% | 6% | . | -28% | -5% | 44%[activator] | . | 3%
COC(=O)Nc1ccc(S(=O)(=O)N2CCCC(C(=O)NC3CCCCC3)C2)cc1 (stereo not given) | -2% | 4% | . | 4%[46.1 µM] | . | -20% | . | ?
COc1ccc(OC)c(Nc2nc(-c3sc(NC(=O)c4ccccc4)nc3C)cs2)c1 | 2% | . | 6.4% | 0% | 27% | . | ? | .
Cc1cccc(N2CC(O)(c3cccs3)[N+]3=C2CCCC3)c1C (stereo not given) | -3% | -12% | . | ? | . | -21% | . | -1%
O=C(NCc1ccccn1)c1coc(=O)c(Br)c1 | ? | -1% | -5.6% | -13% | 15% | 20µM* | -6% | -1%
CCOC(=O)/C=C/c1nc(C(=O)OCC)c(C)c(=O)[nH]1 | 1% | 2% | . | . | 10% | -26% | . | .
COc1cc(C(=O)NC2CC(C)(C)Cc3c2cnn3-c2ccccc2)cc(OC)c1OC (stereo not given) | 1% | -4% | . | -29%[46.1 µM] | ? | -10% | . | 9%
O=C1c2ccccc2C(=O)N1/N=C/c1ccc(O)c(O)c1 | 13% | -5% | -6.9% | -12% | 3% | 8% | 1% | 9%
CCN(CC(=O)Nc1cccc(OC)c1)CC(=O)Nc1ccccc1C | -2% | 9% | . | ? | 4% | -14% | . | -25%[46.1 µM]
Cc1ccccc1Nc1c(-c2ccc(Br)cc2O)nc2sccn12 | . | . | -4.1% | ? | . | ? | 20µM* | -20%[46.1 µM]

Look-ups from the list.
Reading of CN(C)C(=O)CSc1nnc(-c2cnccn2)n1C under Cruzain inh noDet: -9%
Reading of CCOC(=O)N1CCN(Cc2nc(N)nc(Nc3ccc(C)cc3)n2)CC1 under MARV entry inh: 6%
Reading of COc1cc2c(cc1NS(=O)(=O)N1CCCCC1)oc1ccccc12 under Cruzain inh Det: -0.4%
Reading of COc1cc(C(=O)NC2CC(C)(C)Cc3c2cnn3-c2ccccc2)cc(OC)c1OC (stereo not given) under RE007 growth inh: -4%
Reading of O=C(NCC1CCN(Cc2ccccc2F)CC1)C1CCCN(c2ncnc3c2nc2n3CCCCC2)C1 (stereo not given) under RE007 growth inh: 0%

Part of the list above, reduced to MARV entry inh and LASV entry inh:
| compound | MARV entry inh | LASV entry inh |
| --- | --- | --- |
| CCN(CC(=O)Nc1cccc(OC)c1)CC(=O)Nc1ccccc1C | ? | -25%[46.1 µM] |
| CCn1c(CCc2nc3ccccc3[nH]2)n[nH]c1=S | 3%[46.1 µM] | . |

Carrying on:
| SMILES | SARS PLP yeast | RE007 growth inh | Cruzain inh Det | MARV entry inh | NS1 inh | StopGo reporter | Cruzain inh noDet | LASV entry inh |
| --- | --- | --- | --- | --- | --- | --- | --- | --- |
| CC(NC(=O)C1CCN(C(=O)Nc2ccccc2)CC1)c1ccccc1 (stereo not given) | -1% | -4% | . | 26%[46.1 µM] | . | -13% | . | 16% |
| COC(=O)C1=C(C(=O)OC)C(c2ccc(OC)c(OC)c2)c2sc(=O)[nH]c2S1 (stereo not given) | -1% | -18% | . | ? | . | -17% | . | 4% |
| Cc1ccc(C)c(NC(=O)COC(=O)c2ccc3c(c2)OCO3)c1 | 1% | -6% | . | . | -3% | 0% | . | . |
| CCN1C(=O)c2cccc3c(S(=O)(=O)N(C(=O)c4ccncc4)c4ccc(OC)cc4)ccc1c23 | -33% | 3% | -12% | ? | ? | 22% | ? | ? |
| COc1ccc(-n2ncc3c(=O)n(CC(=O)N4c5ccccc5CC4C)cnc32)cc1 (stereo not given) | -9% | 0% | -10% | ? | -5% | -26% | 5% | ? |
| Fc1ccc(-c2cc(-c3cccs3)cc(-c3ccccc3)n2)cc1 | -1% | 6% | . | . | 6% | 4% | . | . |
| O=S(=O)(N[C@H](CO)c1ccccc1)c1ccc(Br)cc1F | -12% | 10% | . | 0% | . | -22% | . | ? |
| O=C(/C=C/c1ccc(Cl)c([N+](=O)[O-])c1)Nc1ccc(NC(=O)c2ccco2)cc1 | 14% | -6% | 2.9% | ? | 2% | -8% | ? | 11% |
| Cc1cccc(NC(=O)CN(C)S(=O)(=O)c2cccc3cccnc23)c1 | 4% | -9% | 2.9% | . | -1% | -32% | 2% | . |
| O=C(O)/C=C/c1ccc2ccccc2n1 | -12% | -6% | -1.3% | ? | -33% | . | -8% | -3% |
| O=c1cc(CSc2nnc(COc3ccc(Cl)cc3)o2)c2ccccc2[nH]1 | 1% | -2% | -0.3% | -7%&-7% | 0% | ? | -4% | 11% |
| CS(=O)(=O)Nc1ccccc1C(=O)NCCSc1ccc(Cl)cc1 | 2% | 11% | . | -26%[46.1 µM] | -31% | -21% | . | -2%[46.1 µM] |
| Nc1cccc(C(=O)Nc2cccc3ncccc23)c1 | 3% | 16% | . | . | 15% | -3% | . | . |
| Cc1cc(C)nc(N/N=C/c2ccc([N+](=O)[O-])o2)n1 | -1% | -20% | . | . | 5% | -18% | . | . |
| Cc1ccc(NC(=S)N(CCCN2CCOCC2)Cc2cccnc2)cc1C | 3% | -11% | . | 15%[46.1 µM] | -2% | 7% | . | 1% |
| O=C(Nc1nc(-c2cccs2)cs1)C1=COCCO1 | -47% | 35µM* | -4.3% | ? | -18% | 5% | -3% | ? |
| Cc1ccc(-c2noc(C3CC(=O)N(c4ccc5c(c4)OCCO5)C3)n2)cc1 (stereo not given) | . | . | -8.5% | . | . | -15% | -2% | -7%[46.1 µM] |
| O=C(NCCc1ccc2c(c1)OCCO2)c1cc(S(=O)(=O)N2CCCC2)ccc1Br | . | -14% | . | -29% | . | -22% | . | -16% |
| CCN(C(=O)Cn1nnc(-c2ccccc2)n1)C1CCS(=O)(=O)C1 (stereo not given) | 0% | 3% | . | 18% | . | 5% | . | ? |
| Cc1ccc(-n2c(O)cnc2Nc2nc(C)cc(C)n2)cc1 | -2% | -5% | 6.5% | 24% | 5% | -4% | 4% | 13% |
| CCOc1ccc(S(=O)(=O)N2CCCC(C(=O)NCc3cccnc3)C2)cc1C (stereo not given) | -2% | 3% | . | -7%[46.1 µM] | 5% | -13% | . | ? |

Screening results from PubChem.
